Source: PubChem (National Center for Advancing Translational Sciences (NCATS))
TSHR agonist: activates the human thyroid stimulating hormone receptor. P16473. HEK293-CNG-TSHR cells (CNG channel as cAMP sensor), membrane potential dye, cAMP. Potency, µM (top dose mostly 57.1 µM), for the others: at the top dose activation, usual class: activators. 73,000 tested, 0.48% active; active = well fitted activation curve of enough size with the parental cells flat; inconclusive = any curve in the parental cells; inactive = parental cells flat and receptor cells flat or falling; also: potency is read from the fitted curve at half-maximal effect; % of control where 0% means no effect; weak receptor curves with flat parental cells got no call and are not listed
Target sequence (P16473 whole entry, looked up): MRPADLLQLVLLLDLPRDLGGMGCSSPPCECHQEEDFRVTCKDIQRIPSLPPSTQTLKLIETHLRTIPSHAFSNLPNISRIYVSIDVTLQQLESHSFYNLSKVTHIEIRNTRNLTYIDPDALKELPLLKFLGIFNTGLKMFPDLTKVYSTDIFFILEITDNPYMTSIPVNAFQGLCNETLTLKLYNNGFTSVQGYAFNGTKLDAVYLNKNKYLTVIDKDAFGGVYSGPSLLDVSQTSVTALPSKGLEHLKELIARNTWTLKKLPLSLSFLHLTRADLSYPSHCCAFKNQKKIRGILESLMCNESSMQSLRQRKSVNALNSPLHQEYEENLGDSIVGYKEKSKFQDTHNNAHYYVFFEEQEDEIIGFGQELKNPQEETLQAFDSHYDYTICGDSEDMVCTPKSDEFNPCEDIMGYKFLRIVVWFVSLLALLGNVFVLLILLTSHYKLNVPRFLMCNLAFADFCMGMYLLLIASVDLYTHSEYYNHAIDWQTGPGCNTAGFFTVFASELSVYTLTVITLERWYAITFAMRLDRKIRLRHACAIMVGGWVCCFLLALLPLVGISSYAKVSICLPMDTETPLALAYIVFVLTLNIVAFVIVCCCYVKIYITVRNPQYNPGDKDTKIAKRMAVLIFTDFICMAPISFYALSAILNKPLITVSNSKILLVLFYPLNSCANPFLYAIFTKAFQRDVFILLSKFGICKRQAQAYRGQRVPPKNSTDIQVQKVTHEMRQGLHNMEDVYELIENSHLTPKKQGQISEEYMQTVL
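HEK 293 cells stably expressing TSHR and a cAMP-gated CNG channel; parental CNG-only cells as counterscreen. Cells preloaded 60 min with membrane potential dye plus 100 uM RO 20-1724, then compound 30 min; fluorescence read at 590 nm.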
A488 autofl: compound fluoresces in the A488 spectral region; max dye equivalency, M; 59,000 tested, 0.1% active; compound autofluorescence, A488 spectral region, dye equivalency; active compounds read high; AID 591; active = above 10 nM dye equivalent; inconclusive = 1 to 10 nM; inactive = 1 nM or less; about half of its hits are not listed in these tables;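 also: highest value over a series up to 38 µM; compound alone in buffer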
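Spectroscopic profiling in the A488 region: compounds in pH 8.0 Tris (100 mM), 15 min RT, CCD imaging with 480 nm excitation and 540 nm emission; responses normalized against A488 dye standards.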
Resorufin autofl: resorufin region autofluorescence. Compound fluorescence, resorufin region 547/598 nm, buffer; active compounds read high. max dye-equivalent concentration, M. 59,000 tested, 0.04% active; active = above 10 nM dye equivalent; inconclusive = 1 to 10 nM; inactive = 1 nM or less; a few of its hits are not listed in these tables; also: highest value over a series up to 38 µM
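Compounds in 100 mM Tris buffer, pH 8.0, incubated 15 min at room temperature, then read with 547 nm excitation and 598 nm emission filters. Fluorescence was converted to dye-equivalent concentration using an on-plate six-point resorufin standard curve.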
A647 autofl: compound autofluorescence in A647 spectral region | Compound fluorescence, A647 channel (570/671 nm), Tris buffer | max dye-equivalent concentration, M | 59,000 tested, under 10 active; active means above 1 µM dye equivalent; inconclusive means 0.1 to 1 µM; inactive means 0.1 µM or less;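 also: values scaled relative to a standard on each plate; highest value over a series up to 38 µM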
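Buffer was dispensed, compounds and Alexa 647 standards were pin-transferred, and plates sat 15 min at room temperature. Intensity at 570/671 nm was then converted to dye-equivalent concentration using the plate's A647 standard curve.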
AID923: qHTS Assay for Allosteric/Competitive Inhibitors of Caspase-1: Spectroscopic Profiling in AFC Spectral Region; Potency, µM (titrated, usually from 57.5 µM), without a hit: top-dose fluorescence increase, most hits filed as activators; compound fluorescence, AFC spectral region (405/520 nm); almost no hit is shown here; 75,000 tested, 1.1% active; active = well fitted activation curve with a large enough effect; inconclusive = small, poorly fitted or top-dose-only effect;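 also: potency is read from the fitted curve at half-maximal effect; 0% is about no effect; scaled to a free AFC standard on each plate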
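Titrations up to 57 uM read every 20 sec for 3 min (405/520 nm) with 50 nM caspase 1 and 5 uM Ac-WEHD-AFC, pH 7.5 HEPES buffer. Fluorescence-vs-time intercept gave baseline, scaled against on-plate AFC standard.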
* hit, by the source's call; i = inactive; ? = inconclusive; nt = not tested or not shown; [ ] = remark or other dose. Only part of the results is shown, so the mix of outcomes need not match the whole.

SMILES	TSHR agonist	A488 autofl	Resorufin autofl	A647 autofl	AID923
CCOC(=O)c1ccc(N2C(=O)C3ON(c4ccccc4)C(c4ccco4)C3C2=O)cc1 (stereo not given)	11%	nt	nt	nt	-1.9%
COc1ccccc1Cn1c(-c2ccco2)nc2nc3ccccc3nc21	-1%	i	i	1e-09	4.4%
NC[C@@H]1O[C@H](O[C@H]2[C@H](O)[C@H](O[C@@H]3O[C@H](CO)[C@@H](O)[C@H](N)[C@@H]3O)[C@@H](N)C[C@H]2N)[C@@H](O)[C@H](O)[C@@H]1O	-11%[25.6 µM]	i	i	1e-08	-0.4%[25.7 µM]
NC(=O)c1ccccc1	?	i	i	6.2e-08	-6.7%
CCCCn1c(SCC(=O)OCC)nnc1-c1ccoc1C	?	i	i	1e-09	-0.4%
COc1ccc(Nc2nc(-c3sc(N)nc3C)cs2)cc1	?	i	i	1e-09	0.8%
CCN(CC)c1ccc(NC(=O)COc2ccc(C)cc2)cc1	?	nt	nt	nt	2.5%
O=C(Nc1ccccc1-c1ccccc1)c1ccco1	?	i	i	2.2e-08	-0.6%
Cn1nc(C(C)(C)C)cc1C(=O)Nc1nc2c(s1)C(=O)CC(C)(C)C2	7%	i	i	3.8e-09	-1.8%
O=C(Nc1ccccc1N1CCCC1)c1cccnc1	-10%	i	i	1e-09	-0.3%
Cc1c(C(=O)O)oc2ccc(S(=O)(=O)N3CCCCC3C(=O)O)cc12 (stereo not given)	-1%	nt	nt	nt	12%
O=C(c1cnc2sccn2c1=O)N1CCc2ccccc2C1	1%	i	i	1.8e-08	2.0%
CCSC(C)CC1CC(=O)CC(=O)C1 (stereo not given)	23%	nt	nt	nt	3.6%
CCOCc1nnc(NS(C)(=O)=O)s1	-4%	i	i	2.8e-08	2.3%
Clc1ccc(Cn2nnc(-c3ccc(N4CCOCC4)cc3)n2)cc1	?	i	i	2.1e-08	-1.8%
NC(N)=NC(N)=Nc1c(F)c(F)c(F)c(F)c1F	-1%[11.4 µM]	i	i	6.3e-08	0.7%[11.5 µM]
COC(=O)N1[C@H](C)C=C[C@]1(Cc1ccccc1)C(=O)NCc1ccccn1	8%	nt	nt	nt	-3.9%
Cc1ccc(N(C(=O)C2CCC(=O)N2)C2(C(=O)NC3CCCCC3)CCCCC2)cc1 (stereo not given)	1%	i	i	1.8e-08	1.5%
Cn1nnnc1SCc1cccc(CSc2nnnn2C)n1	0%	i	i	3.6e-08	-0.2%
COc1ccc(N2CCN(C(=O)CSc3nnc(Cn4nnc5ccccc54)n3C)CC2)cc1	10%	i	i	4.3e-08	0.0%
COC(=O)C(C)Sc1nc(-c2ccc(OC)cc2)nc2c1c(=O)n(C)c(=O)n2C (stereo not given)	nt	i	i	1e-09	-0.1%
CCn1c(C)nc2cc(-c3nnc(-c4c(-c5ccccc5)noc4C)o3)ccc21	?	i	i	1e-09	-5.1%
Cc1ccc(S(=O)(=O)N2c3ccccc3NC(=O)C2CC(=O)Nc2ccccc2)cc1 (stereo not given)	-18%	i	i	3.7e-09	1.1%
O=C(Nc1ccc(Cc2ccncc2)cc1)c1ccc(S(=O)(=O)N2CCOCC2)cc1	29%	i	i	1.3e-08	-0.4%
Nc1ccc(Cl)cc1/C(=N/O)c1ccccc1	nt	i	i	1e-09	nt
Cc1cc(C(=O)NC(C)c2ccncc2)no1 (stereo not given)	-1%	nt	nt	nt	5.6%
Cc1ccc(CNC(=O)CCNS(=O)(=O)c2ccc3c(c2)c(=O)n(C)c(=O)n3C)cc1	0%	i	i	1e-09	-0.4%
O=C(CSc1ncnc2nc[nH]c12)NCCc1ccccc1	-1%	nt	nt	nt	-0.8%
CCOC(=O)CCN1C(=O)[C@H]2[C@H]3[C@H](O)[C@H](O)C/C(=N/NC(=O)OCc4ccccc4)[C@H]3CC[C@@H]2C1=O	-1%[11.4 µM]	nt	nt	nt	-0.5%[11.5 µM]
CCOC(=O)c1[nH]c2ccccc2c1N=C(C)N(CC)CC	nt	i	i	6.3e-08	nt

Compounds listed so far that contain an NH in an aromatic ring, in the order listed:
SMILES	TSHR agonist	A488 autofl	Resorufin autofl	A647 autofl	AID923
O=C(CSc1ncnc2nc[nH]c12)NCCc1ccccc1	-1%	nt	nt	nt	-0.8%
CCOC(=O)c1[nH]c2ccccc2c1N=C(C)N(CC)CC	nt	i	i	6.3e-08	nt

Next entries
SMILES	TSHR agonist	A488 autofl	Resorufin autofl	A647 autofl	AID923
O=C(CCc1nc2ccccc2[nH]1)N1CCN(C(=O)c2ccco2)CC1	4%	nt	nt	nt	0.0%
COC(=O)c1cc(OC)c(OC)cc1NC(=O)CCC1CCCC1	22%	i	i	1e-09	-1.1%
COc1ccc(N(CC(=O)NC2CCCC2)C(=O)CCC(=O)Nc2cc(C)on2)c(OC)c1	2%	i	i	4.9e-08	0.6%
CCOC(=O)C1=C(C)Nc2ncnn2C1c1c[nH]c2ccccc12 (stereo not given)	3%	i	i	1e-09	-0.6%
CCOC(=O)N1CCC(NC2CCCCCCC2)CC1	12%	nt	nt	nt	-0.4%
CCc1ccc2c(COn3nnc4ccc(S(=O)(=O)N(C)C)cc43)cc(=O)oc2c1	?	i	i	8.8e-09	1.8%
CCCCCn1c(CN(C)Cc2ccccc2)nc2c1c(=O)n(C)c(=O)n2C	?	i	i	2.8e-08	-1.0%
CC(C)CNC(=O)CSc1nnc(CN2CCCCCC2=O)n1-c1ccccn1	5%	i	i	1.9e-08	-0.4%
COc1ccc(OC)c(-c2csc(N(Cc3ccco3)C(=O)c3cccs3)n2)c1	?	i	i	4.8e-09	1.5%
Cn1c(SCC(=O)NCc2cccs2)nnc1-c1cccs1	-1%	i	i	1e-09	0.1%
CCOC(=O)C1CCN(C(=O)c2ccc(Cl)c(NC3=NC4CS(=O)(=O)CC4S3)c2)CC1 (stereo not given)	?	nt	nt	nt	-1.7%
Cc1ccc(NC(=O)CC2SCCNC2=O)cc1Cl (stereo not given)	-4%	i	i	2.2e-08	-2.2%
CCOC(=O)c1[nH]c2ccc(OC)cc2c1NC(=O)CCN1CCc2ccccc2C1	nt	i	i	4.6e-08	nt
CCC[C@@H]1C[C@@H](C(=O)N[C@H]([C@@H](C)O)[C@H]2O[C@H](SC)[C@H](O)[C@@H](O)C2O)N(C)C1 (stereo not given in full)	nt	i	i	2.9e-08	nt
O=C(O)c1ccc(NS(=O)(=O)Cc2ccccc2)cc1	-5%[11.4 µM]	i	i	1.5e-09	0.9%[11.5 µM]
O=c1[nH]c2cc3c(cc2cc1C(c1nnnn1Cc1ccccc1)N1CCN2CCCC2C1)OCCO3 (stereo not given)	-1%	i	i	1e-09	16%
COC(=O)c1nc(-c2ccc(C)cc2)oc1N(C)C	-6%[11.4 µM]	i	i	6.4e-09	-1.4%
CC1CCc2nn(CC(=O)Nc3ccc(F)cc3F)cc2C1 (stereo not given)	23%	nt	nt	nt	-3.7%
CCn1nnc(-c2ccccc2NS(=O)(=O)c2ccc(C(=O)OC)cc2)n1	-2%	i	i	2.4e-08	-4.0%
CCOc1ccccc1C(=O)N1CCN=C1SC	-1%	i	i	6.3e-09	1.9%
Cc1c(NC(=O)c2ccccc2N)cccc1C(=O)O	7%	i	i	3.2e-09	-0.5%
CCOc1ccc(N2C(=O)CC(SC(=NC)Nc3cccc(F)c3)C2=O)cc1 (stereo not given)	-24%	nt	nt	nt	-1.7%
O=c1cc(-c2ccccc2)c2ccccc2[nH]1	10%	i	i	1e-09	-0.6%
Cc1noc(C)c1S(=O)(=O)Nc1ccc(C(=O)N2CCN(c3ccc(Cl)cc3)CC2)cc1	-2%	i	i	5.2e-09	-1.8%
CCOC(=O)CSc1nc2ccccc2c(=O)n1CC1COc2ccccc2O1 (stereo not given)	?	i	i	1e-09	-0.1%
C=C1Cn2c(nnc2-c2ccc(Cl)cc2)S1	6%	nt	nt	nt	-2.1%
COc1ccccc1N(C(=O)c1snc(C(N)=O)c1N)C(C(=O)NC1CCCC1)c1ccco1 (stereo not given)	?	i	i	1e-09	13%
CCN(CC)c1nc(Nc2ccccc2)nc(Oc2ccc(=O)n(C)n2)n1	?	i	i	1e-09	-0.3%
CCc1ccc(NC2=NCC(=O)N2c2ccc3c(c2)OCCO3)cc1	-9%	i	i	2.3e-08	0.5%
O=C(CN1CCN(S(=O)(=O)c2ccc(F)cc2)CC1)Nc1ccc2c(c1)OCCO2	6%	i	i	3e-08	1.4%

One compound at a time, from the list above. Order of values: TSHR agonist, A488 autofl, Resorufin autofl, A647 autofl, AID923
`Cc1c(NC(=O)c2ccccc2N)cccc1C(=O)O` is entered as 7%, i, i, 3.2e-09, -0.5%
`C=C1Cn2c(nnc2-c2ccc(Cl)cc2)S1` is entered as 6%, nt, nt, nt, -2.1%
`CCn1nnc(-c2ccccc2NS(=O)(=O)c2ccc(C(=O)OC)cc2)n1` is entered as -2%, i, i, 2.4e-08, -4.0%
`COC(=O)c1nc(-c2ccc(C)cc2)oc1N(C)C` is entered as -6%[11.4 µM], i, i, 6.4e-09, -1.4%
`CCOc1ccc(N2C(=O)CC(SC(=NC)Nc3cccc(F)c3)C2=O)cc1` (stereo not given) is entered as -24%, nt, nt, nt, -1.7%

Further structures.
SMILES	TSHR agonist	A488 autofl	Resorufin autofl	A647 autofl	AID923
Cc1ccc2c(C(=O)CN3CCN(c4ccccc4)CC3)c(C)[nH]c2c1	6%	i	i	3.6e-08	0.5%
CCCCNC(=O)C(c1ccc(OCC(=O)OC)c(C(=O)OC)c1)N(CCC1=CCCCC1)C(=O)CCCCCN1C(=O)NC(c2ccc(-c3ccccc3)cc2)C(C(=O)OCc2ccccc2)=C1C (stereo not given)	-8%	nt	nt	nt	2.6%
CS(=O)(=O)CCC(C(=O)n1nnc2ccccc21)N1C(=O)c2ccccc2C1=O (stereo not given)	nt	i	i	2.7e-08	nt
CC(Oc1ccccc1)C(=O)NC1CCN(Cc2ccccc2)CC1 (stereo not given)	19%	i	i	1e-08	0.7%
Cc1cccc(CS(=O)(=O)Cc2ccc(C(=O)O)o2)c1	-1%[11.4 µM]	i	i	1.6e-08	-1.0%
COc1ccc2[nH]cc(CCNc3ncncc3-c3ccccc3OC)c2c1	?	i	i	1e-09	7.6%
O=C(O)c1cccc(NS(=O)(=O)c2ccc(Cl)c(C(=O)O)c2)c1	4%	nt	nt	nt	-0.9%
CCc1nnc(NC(=O)CSc2nnc3ncccn23)s1	?	i	i	2.5e-08	1.3%
COc1ccc(S(=O)(=O)Nc2cc(C(=O)NCCC(C)C)ccc2N2CCOCC2)cc1	-4%	i	i	6.9e-09	-1.3%
CO[C@]1(NC(=O)Cc2cccs2)C(=O)N2C(C(=O)O)=C(COC(N)=O)CS[C@H]21	-13%[25.6 µM]	i	i	1e-09	9.2%[25.7 µM]
O=C1COc2cccnc2N1	28%	i	i	2.6e-09	0.4%
O=C(c1csnn1)N1CCC2(CC1)CCN(c1cccc(-c3ccccc3)c1)CC2	?	i	i	1e-09	1.6%
Cc1nnc(SCc2cnc(-c3ccc(C(C)C)cc3)s2)n1C	?	i	i	1.1e-09	0.3%
